VACV Venus inh – qHTS for Stage-Specific Inhibitors of Vaccinia Orthopoxvirus: Venus Reporter Primary qHTS; Vaccinia virus Venus reporter expression, fluorescence; Potency, µM (doses to about 36.5 µM), for inactives: at the top dose activity change, negative = inhibition, hits mostly inhibitors; 330,000 tested, 0.46% active; AID 720580, 2013; active means well fitted inhibition curve with a large enough effect; inconclusive means small, poorly fitted or top-dose-only effect; inactive means no such curve, though single readings can be large or run the other way; tested in A549 cells; also: nearly all actives have a fitted effect of over 30% in size; inactives centre near -10
Vaccinia mCherry – qHTS for Stage-Specific Inhibitors of Vaccinia Orthopoxvirus: mCherry Reporter Primary qHTS | Vaccinia virus mCherry reporter infection, fluorescence; about a quarter of the inactives have no number | Potency, µM (doses to about 36.5 µM), inactives show at the highest dose activity change, negative = inhibition, hits mostly inhibitors | 310,000 tested, 0.63% active; active = well fitted inhibition curve with a large enough effect; inconclusive = small, poorly fitted or top-dose-only effect; inactive = no such curve, though single readings can be large or run the other way; tested in A549 cells; also: nearly all actives have a fitted effect of over 35% in size; inactives centre near -10
* marks the source's active call; other numbers are inactive results; i = inactive; ? = inconclusive; . = no result given; [ ] = another dose, or the depositor's remark. % is scaled to controls: 0 for no effect and ±100 for the full control effect; potency is read from the fitted curve at half-maximal effect.

Below each compound: VACV Venus inh, Vaccinia mCherry
COC(=O)[C@]1(Cc2ccccc2)N[C@H](CN(C)C(=O)Nc2ccccc2)[C@@H]2C(=O)N(C)C(=O)[C@@H]21
 : 0%, i
COc1ccc(N2CC(C(=O)NNC(=O)c3ccc(Br)cc3)CC2=O)c(OC)c1 (centres undefined)
 : -17%, -27%
CCN1CCN(C(=O)c2ccc(Cl)c(S(=O)(=O)N3CCCCCC3)c2)CC1
 : -11%, -22%
COc1ccc(N(CC(=O)NC(C)C)C(=O)CCC(=O)Nc2ccccn2)cc1
 : -7%, -15%
COc1cc(C2C(c3ccccc3)C(c3cc(OC)cc(=O)o3)C2c2ccccc2)oc(=O)c1 (centres undefined)
 : -16%, -12%
COC(=O)C1(Cc2cc(-c3ccccc3)no2)CCN(C(=O)OC(C)(C)C)CC1
 : -15%, i
COc1ccc(NP2(=O)NCCCN2)cc1
 : 0%, i
COc1ccc(CN(C)C(C)C(=O)Nc2cccc3ccccc23)cc1 (centres undefined)
 : 4%, ?
O=C(CSc1ccc(F)cc1)NC(=O)c1ccccc1
 : -3%, -19%
CN(C)C=Nc1ccc2nn(-c3ccccc3)nc2c1
 : 5%, -13%
O=c1nc(N/N=C/C=C/c2ccccc2)cn[nH]1
 : -6%, i
O=C(CCNS(=O)(=O)c1cccc2nsnc12)NCc1ccccc1Cl
 : -5%, i
CC(C)(C)NCc1cc(Cl)ccc1OCc1cccs1
 : -9%, -18%
CC1(O)CC2CC1C(C(=O)O)C2C(=O)O (centres undefined)
 : -5%, i
CC(C(=O)Nc1ccc(S(=O)(=O)N2CCOCC2)cc1)N1C(=O)C2CC=CCC2C1=O (centres undefined)
 : 1%, -20%
COc1ccc(O)c(C(=O)c2cc(C#N)c(=O)n(Cc3ccccc3)c2)c1
 : -4%, -19%
COC(=O)[C@@]1(Cc2ccc(F)cc2)[C@H]2c3cc(C(=O)N(C)C)n(CCF)c3C[C@H]2CN1C(=O)c1ccccc1
 : -12%, -13%
O=[n+]1c2c(n([O-])c3ccccc31)CCC2
 : -1%, -4%
CC(NC(=O)c1ccc2nc[nH]c2c1)c1ccccc1 (centres undefined)
 : -8%, i
CCOc1ccc(N(C(=O)CNC(=O)c2cccs2)C(C(=O)NCC2CCCO2)c2ccc(OC)c(OC)c2)cc1 (centres undefined)
 : -16%, -11%
O=C(C=CC(=O)OC1CCCCC1)OC1CCCCC1
 : -19%, -6%
CN(C)C(=O)C[C@@H]1C=C[C@@H](NC(=O)C2CCC2)[C@@H](CO)O1
 : -14%, -1%
Cc1cc(C)nc(NC(N)=NCCc2c[nH]c3ccccc23)n1
 : ?, ?
COc1cc(OC)c(NC(=O)CCCn2c(=O)oc3ccccc32)cc1Cl
 : -16%, -23%
COc1ccc(CC(=O)NNC(=S)NC(=O)c2cccnc2)cc1
 : -9%, -14%
COc1ccc2cc(N=Cc3nc(-c4ccc(C)cc4)oc3O)cnc2c1
 : 4%, 6%
O=C(O)CNc1ncccc1[N+](=O)[O-]
 : -2%, 2%
Cc1cc(C)n(CCC(=O)N/N=C/c2ccc(Br)c([N+](=O)[O-])c2)n1
 : 6%, -9%
O=c1oc2cc(OCc3c(F)cccc3Cl)ccc2cc1-c1ccccn1
 : -1%, 0%[1.46 µM]
CC1(c2ccc3c(c2)OCCCO3)NC(=O)N(CC(=O)NCCc2ccc(F)cc2)C1=O (centres undefined)
 : -13%, i

The list goes on (two carried over from the part before).
Below each compound: VACV Venus inh, Vaccinia mCherry
O=c1oc2cc(OCc3c(F)cccc3Cl)ccc2cc1-c1ccccn1
 : -1%, 0%[1.46 µM]
CC1(c2ccc3c(c2)OCCCO3)NC(=O)N(CC(=O)NCCc2ccc(F)cc2)C1=O (centres undefined)
 : -13%, i
CCOC(=O)[C@@H]1[C@H]2COc3cc(OC)ccc3[C@H]2N2C(=O)N(c3ccc(F)cc3)C(=O)[C@@]12C
 : -16%, i
CCOC(=O)N1CCN(S(=O)(=O)c2cc(Br)cnc2N)CC1
 : 1%, -10%
CCSc1ncc(Cl)c(C(=O)N2CCN(c3ccc(OC)cc3)CC2)n1
 : -15%, -14%
COc1cccc(CNC(=O)CSc2cc(=O)n(C)c3ccccc23)c1
 : -10%, -5%
COc1ccc(CCC(=O)N2CCN(c3ccccc3)CC2)cc1OC
 : -18%, -19%
COC(C[C@@H](O)[C@H](C)[C@H](O)COCc1ccccc1)OC
 : -5%, i
CC(=O)c1sc(NC(=O)c2cnc(Cl)c(Cl)c2)nc1C
 : 8%, 9%
CCOc1ccc(Oc2nc(N(CC)CC)nc(N3CCOCC3)n2)nn1
 : 2%, -9%
Oc1ccccc1C=NN=Cc1c(O)ccc2ccccc12
 : -12%, i
CCN1C(=O)c2cccc3c(S(=O)(=O)Nc4ccc(O)c(C(=O)O)c4)ccc1c23
 : -3%, -17%
COc1ccc(C(c2sc3nc(C)nn3c2O)N2CCN(Cc3ccccc3)CC2)cc1OC (centres undefined)
 : 3%, i
CN(c1ccccc1)S(=O)(=O)c1ccc(NC(=O)c2nc(S(C)(=O)=O)ncc2Cl)cc1
 : -6%[7.34 µM], -8%[7.34 µM]
COc1cccc(C(=O)CSc2nc3ccccc3n2CC(=O)N(C(C)C)C(C)C)c1
 : -4%, .
CC(C)CC(N)c1csc(NC(=O)Nc2ccccc2Cc2ccccc2)n1 (centres undefined)
 : ?, ?
COc1ccc(OC)c(S(=O)(=O)N/N=C\c2c[nH]c3ccccc23)c1
 : -29%, -25%
O=C(Nc1ccc2c(c1)OCO2)c1ccc2sc([C@H]3C[C@H](O)[C@@H](CO)O3)nc2c1
 : -3%, -2%
COc1cccc(COc2nc3c(c(=O)n(C)c(=O)n3C)n2C)c1
 : -9%, -26%
Cc1ccc(C)c(N2CCN(C(=O)Cn3cnc4nc5c(cc4c3=O)CCCC5)CC2)c1
 : -30%, -26%
CCc1ccccc1NC(=S)N1CCN(c2ccccc2F)CC1
 : -17%, -17%
O=C(O)c1ccccc1C(=O)NCC(O)COc1ccc(Cl)cc1 (centres undefined)
 : 2%, -20%
Cc1c(N=C2NC(=O)C(CC(=O)Nc3ccccc3)S2)c(=O)n(-c2ccccc2)n1C (centres undefined)
 : -2%, .
O=C(NCCCN1CCN(c2ccccc2F)CC1)c1cc2c(Cl)nc3ccccc3c2s1
 : -7%, -12%
N#CCCNc1ccc(OCCC#N)cc1
 : -20%, -19%[1.46 µM]
Cc1ccc(C(=O)Nc2ccc(C(=O)OCc3cc(=O)n4nc(C5CC5)sc4n3)cc2)cc1
 : -3%, -8%
C#CCN1C=CC(=O)[C@@H](OC(=O)Nc2ccc(Br)cc2)[C@H]1c1ccccc1Br
 : -24%, -15%
NS(=O)(=O)c1ccc(NC(=S)NCc2cccc(Cl)c2)cc1
 : -15%, -23%
Cc1ccc(-n2nnnc2SCC(=O)N2CCc3ccccc3C2)cc1
 : -11%, -1%
CNC(=O)C1CCN(Cc2cc3ccccc3n2Cc2cccc(C)c2)CC1
 : -6%, -7%
OC(c1ccncc1)(c1ccc(F)cc1)c1ccc(F)cc1
 : -11%, -21%
CCCNC(=O)C1(C)CCCN(Cc2ccccc2N(C)C)C1 (centres undefined)
 : -13%, i

Below each compound: VACV Venus inh, Vaccinia mCherry
CC(=O)c1ccc(S(=O)(=O)Nc2ccc(-c3ccc(N4CCCCC4)nn3)cc2)cc1
 : -2%, -7%
Cc1cccn2c(CN[C@H]3CCCCNC3=O)c(C(=O)N3CCOCC3)nc12
 : -2%, -12%
c1nc(SSc2ncnc3nc[nH]c23)c2[nH]cnc2n1
 : -26%, ?
COc1cccc(NC(=O)COC(=O)C2CCN(S(=O)(=O)c3cccs3)CC2)c1
 : -1%, -23%
Fc1ccc(-c2nc3c4ccccc4ccn3c2Cc2ccccc2C(F)(F)F)cc1
 : 9%, 21%
CC(=O)OCC(=O)C1=CCC2C3CCC4=CC(=O)C=CC4(C)C3(F)C(OC(C)=O)CC12C (centres undefined)
 : -1%, -12%
COc1ccc(NC(=O)Nc2nnc(-c3ccco3)s2)cc1
 : -6%[7.34 µM], -15%[7.34 µM]
Cc1cc(C)c(S(=O)(=O)N2CCCOC2CNC(=O)C(=O)NCc2ccco2)c(C)c1 (centres undefined)
 : 5%, -14%
Cc1ccc(C(=O)c2c3ccc(C(F)(F)F)cc3nn2CCC(N)=O)cc1
 : ?, -9%
CCOC(=O)c1ccc(S(=O)(=O)NC2CCCCCCC2)n1C
 : ?, .
Cc1noc2ncnc(NCc3cccc(Cl)c3)c12
 : -23%, -8%
CCN(c1cc(C)cc(C)c1)S(=O)(=O)c1nnc(NC(=O)c2cccs2)s1
 : -9%, -7%
Cc1cc(C)c2nc(NC(=O)c3ccc4c(=O)n5c(nc4c3)CCCCC5)sc2c1
 : -22%, i
COc1ccccc1C1=NNC(=Nc2cccc(S(=O)(=O)N(C)C)c2)SC1
 : -13%, ?
CCC(=O)N1CCC2(CC1)Oc1ccc(Cl)cc1C(=O)C21CC(c2ccccc2)=NO1 (centres undefined)
 : -30%, i
O=c1c2[nH]c3ccccc3c2nc2n1CCS2
 : -6%, -10%
NC(=O)NCc1ccc(F)cc1
 : -7%, i
CC1(OC(=O)c2ccco2)C(=O)C=C2C=C(C3CC3)OC=C2C1=O (centres undefined)
 : 7%, ?
O=C(COc1ccccc1)Nc1c(C(=O)N2CCN(c3ccc(F)cc3)CC2)oc2ccccc12
 : -12%, -7%
CCNC(=O)C1CCCN(Cc2ccc(C(=O)OCC)cc2)CC1 (centres undefined)
 : -1%, 5%
CC1CCC(NC(=O)CN2CCC(n3nnc4cc(F)ccc43)CC2)CC1 (centres undefined)
 : -22%, -29%
N#Cc1cnc(=S)n(-c2cc(C(F)(F)F)cc(C(F)(F)F)c2)c1N
 : -12%, -4%
COCCNC(=O)C(c1cccnc1)N(Cc1ccccc1)C(=O)Cn1nnc2ccccc21 (centres undefined)
 : -5%, -7%
CCOc1ccc(N2CC(NC(=O)c3ccc(S(=O)(=O)N4CCCC4)cc3)CC2=O)cc1 (centres undefined)
 : -22%, -22%
O=S(=O)(Nc1ccc(-c2ccc(N3CCCC3)nn2)cc1)c1ccc(OC(F)(F)F)cc1
 : -17%, -15%
COc1ccc(Br)cc1C(=O)NC(=S)Nc1ccc(CN2CCOCC2)cc1
 : -24%, -14%
CCOC(=O)[C@H]1[C@H]2COc3ccc(OC)cc3[C@@H]2N2C(=O)CN(Cc3ccco3)C(=O)[C@@]12C
 : -12%, i
COc1ccc(C(=O)c2ccc([N+](=O)[O-])cc2Cl)cc1
 : -15%, -9%
O=c1c(O)c(-c2ccccc2)oc2ccc3occc3c12
 : 0%, i
CCc1ccc2oc(-c3ccc(C)c(NC(=O)c4cc([N+](=O)[O-])ccc4N4CCOCC4)c3)nc2c1
 : -5%, 3%

Entries listed so far that contain an aryl thioether with sulfur outside any ring, in the order listed:
Below each compound: VACV Venus inh, Vaccinia mCherry
O=C(CSc1ccc(F)cc1)NC(=O)c1ccccc1
 : -3%, -19%
CCSc1ncc(Cl)c(C(=O)N2CCN(c3ccc(OC)cc3)CC2)n1
 : -15%, -14%
COc1cccc(CNC(=O)CSc2cc(=O)n(C)c3ccccc23)c1
 : -10%, -5%
COc1cccc(C(=O)CSc2nc3ccccc3n2CC(=O)N(C(C)C)C(C)C)c1
 : -4%, .
Cc1ccc(-n2nnnc2SCC(=O)N2CCc3ccccc3C2)cc1
 : -11%, -1%

Next section:
SMILES | VACV Venus inh | Vaccinia mCherry
O=C(C[n+]1csc2ccccc21)c1cccc([N+](=O)[O-])c1 | -8% | -13%
O=C(OCC(=O)N1CCCCC1)c1c[nH]c2ccccc12 | -13% | i
NC(=O)NC(=O)COC(=O)CC12CC3CC(CC(C3)C1)C2 | -11% | -10%
N#Cc1cn(-c2ccccc2)nc1-c1cc2ccccc2oc1=O | -7% | i
O=C(Cc1ccccc1)NCC(=O)OCc1ccc([N+](=O)[O-])cc1 | -18% | i
COc1ccc2ncc3c(-c4ccccc4)nn(-c4ccc(C)c(C)c4)c3c2c1 | -8% | -13%
COC(=O)C1=C(C)NC(C)=C(C(=O)OC)C1c1ccc(-c2cccc(Cl)c2Cl)o1 | -15% | ?
COc1ccc(C(CC(=O)O)NC(=O)Nc2ccccc2)cc1OC (centres undefined) | 7% | 2%
CC(=O)c1ccc(NC(=O)C2C3C=CC(C3=C(c3ccccc3)c3ccccc3)C2C(=O)O)cc1 (centres undefined) | -26% | -7%
COc1ccc(C(=O)C2CCCN(C/C=C/c3ccccc3OC)C2)c(OC)c1 (centres undefined) | -13% | -12%
O=c1c2ccccc2nc(-c2ccco2)n1-c1nccs1 | -9% | -17%
c1ccc2c(c1)Cc1ccccc1O2 | -3% | i
O=C(Nc1cccc(NC(=O)c2ccc([N+](=O)[O-])o2)c1)c1ccco1 | ? | 13µM*
Cc1ccc(-c2nc3cc(C)c(Br)c(C)n3c2CC2CCCCC2)cc1 | 1% | 13%
CCOC(=O)c1scc(-c2ccccc2)c1S(=O)(=O)Nc1cc(OC)cc(OC)c1 | -2% | -15%
CC1(c2cccc(Br)c2)NC(=O)N(CC(=O)N2CCc3ccccc32)C1=O (centres undefined) | -24% | -23%
Cc1cc(C)c2sc(N3CCN(C(=O)C4CC4)CC3)nc2c1 | -10% | -12%
COc1ccccc1C(=O)Nc1ccc2c(c1)CCCN2C(=O)c1cccs1 | -21% | i
Cc1cccc(N=C2NC(=O)/C(=C\c3cccs3)S2)c1 | -12% | -21%

Screens: PubChem, National Center for Advancing Translational Sciences (NCATS)
